PABP polyA inh: blocks human PABP binding to poly(A) RNA; P11940; fluorescence polarization; inhibition, % at 35 µM; 290,000 tested, 1% active; AID 2014;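 active = 50% or more with normal probe brightness, or confirmed in later tests; about a fifth of its hits are not listed in these tables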;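 also: calls also rest on retests at 20 µM and on dose response follow-up; controls were probe without protein and protein plus probe with vehicle; some compounds called inactive have numbers as strong as hits; many hits fall short of the cut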
Target sequence (P11940 whole entry, looked up): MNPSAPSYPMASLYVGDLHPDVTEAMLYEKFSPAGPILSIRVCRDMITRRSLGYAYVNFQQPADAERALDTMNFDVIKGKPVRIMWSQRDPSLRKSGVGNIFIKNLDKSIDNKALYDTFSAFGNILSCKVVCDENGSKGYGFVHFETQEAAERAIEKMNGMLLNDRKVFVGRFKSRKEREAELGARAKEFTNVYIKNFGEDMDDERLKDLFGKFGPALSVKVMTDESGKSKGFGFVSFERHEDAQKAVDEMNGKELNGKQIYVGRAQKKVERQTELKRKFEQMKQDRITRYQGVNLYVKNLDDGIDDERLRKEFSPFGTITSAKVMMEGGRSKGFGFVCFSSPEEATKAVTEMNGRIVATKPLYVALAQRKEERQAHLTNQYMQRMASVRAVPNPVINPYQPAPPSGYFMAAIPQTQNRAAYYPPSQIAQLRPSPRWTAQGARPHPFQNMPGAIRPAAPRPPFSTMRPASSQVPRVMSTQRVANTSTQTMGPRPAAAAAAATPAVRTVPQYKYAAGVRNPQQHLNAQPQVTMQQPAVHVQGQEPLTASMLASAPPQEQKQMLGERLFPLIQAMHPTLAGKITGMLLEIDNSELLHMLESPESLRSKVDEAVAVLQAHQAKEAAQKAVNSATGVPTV
CSC inhib: cancer stem cell inhibition; cancer stem cell-like cells viability, luminescence; inhibition, % at 7.5 µM; 300,000 tested, 1.1% active; AID 2717;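 active = mean at 75% or more and at least half the replicates too; tested in HMLE shEcad cells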;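 also: 0% = median of negative and 100% = median of positive control wells; the first replicate is given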
Rce1 inhib: inhibitors of yeast Ras-converting enzyme. AID 2563. Q03530. 290,000 tested, 0.27% active. yeast membranes, quenched prenylated peptide cleavage fluorescence. calls only;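 active = fall in fluorescence gain of 50% or more versus controls, with final raw signal at or below 3038400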;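 also: plate controls were neutral control wells for no effect and wells lacking membranes for full effect; tested at 10 µM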
UUG fidelity: yeast start codon fidelity modulation; activity score, % at 18.7 µM; 350,000 tested, 0.13% active; S. cerevisiae UUG-firefly luciferase reporter, luminescence/redox ratio;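 active = replicate mean at a twofold rise or more, about +100% in these data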;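 also: firefly luciferase made from a UUG start codon reports start codon fidelity; reporter light over untreated wells divided by growth signal over untreated wells; some hits fall short of that in this replicate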
HIV Env fusion: blocks HIV Env-driven cell-cell fusion | HeLa-JRFL Env/CEM21 cell fusion, luciferase | inhibition, % at 12.3 µM | 360,000 tested, 1.1% active;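 active = mean replicate inhibition score of at least 50 and every replicate individually at or above 50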;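 also: 0% = plate neutral controls and 100% = maraviroc near 300 nM; one replicate is shown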
eIF4H FP inh: inhibitors of RNA binding by human eIF4H; 290,000 tested, 0.94% active; AID 2012; inhibition, % at 35 µM; eIF4H fluorescence polarization binding assay;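 active = 50% or more with normal probe brightness, or confirmed in later tests; about a fifth of its hits are not listed in these tables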;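 also: calls also rest on retests at 20 µM and on dose response follow-up; 0% = protein and probe with vehicle and 100% = probe without protein; strong numbers were not always called active; many hits fall short of the cut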
MT1-MMP act inh: inhibitors of human MT1-MMP activation; AID 651647; P50281; HT1080 RFP-PRO-GFP cells, GFP/RFP ratio fluorescence, overnight; percent of plate control window, DMSO zero; GFP/RFP ratio change, % at 20 µM; 360,000 tested, 0.061% active;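 active = GFP/RFP ratio change of at least 30% with cell ATP level not reduced by more than half and red fluorescence within 50% of control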; also: strong numbers were not always called active
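system = RFP-PRO-GFP reporter HT1080 cells | dosing = 20 µM single dose, 1% DMSO | timing = overnight cell settling, then overnight compound exposure, 37 °C, 5% CO2 | read-out basis = GFP/RFP fluorescence ratio | controls = DMSO and RFP-L50D-GFP cell wells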
eIF4H FP inh retest: second read-out of eIF4H FP inh, no call of its own (marks repeat the call); inhibition, %; compound at 20 µM; confirmation average;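 mean of two retest wells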
PABP polyA inh retest: further read-out of PABP polyA inh, marked with its call; inhibition, %; compound at 20 µM; confirmation repeats;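 mean of two retest wells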
MT1-MMP act inh RFP: also measured in MT1-MMP act inh; calls as there; RFP signal change, %; measured here: RFP expression control read;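 0 = vehicle wells; hits needed this value within 50% of zero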
* marks the source's active call; other numbers are inactive results; i = inactive; . = not tested or not shown; & = joins results of further samples; [ ] = dose if it differs, or a comment.

SMILES	PABP polyA inh	CSC inhib	Rce1 inhib	UUG fidelity	HIV Env fusion	eIF4H FP inh	MT1-MMP act inh	MT1-MMP act inh RFP	others
O=C(CCc1n[nH]c(=O)[nH]c1=O)N1CCCCC1	-3	9	i	8	11	-1	-2	6
O=C1NC(=Nc2ccccc2)S/C1=C\C=C\c1ccco1	-6	57	i	.	-1	80	-8	8	eIF4H FP inh retest=3;PABP polyA inh retest=-4
COc1ccc(CNC(=O)c2cnc3scc(C)n3c2=O)cc1	-1	-9	i	-12	17	-4	-2	2
CCOC(=O)c1c(C)n(CCNC(C)=O)c2ccc(O)cc12	-6	-10	i	-17	-13	-7	9	0
COc1cccc(C2c3[nH]c4ccccc4c3C[C@H]3C(=O)N(CCCCCO)CC(=O)N23)c1 (some centres not stated)	4	-10	i	30	23	-6	1	5
COC(=O)c1sccc1NC(=O)c1cc(-c2ccc(C)cc2C)nc2ccccc12	6	24	i	-12	.	-6	-2	-3
COc1ccc(-n2nc(C(=O)NCC(=O)N3CCN(c4ccccc4OC)CC3)c3ccccc3c2=O)cc1OC	1	.	i	-2	-3	-1	2	0
Cc1ccccc1NC(=O)NCCc1nc2ccccc2[nH]1	0	0	i	-25	.	7	4	5
Cc1ccc(N2C(=O)N(CC(=O)Nc3cc(F)ccc3C)C(=O)C2C)cc1 (configuration not stated)	.	7	.	9	13	.	1	0
CCCC(=O)Nc1sc(C)c(C)c1C(=O)Nc1cccc(C)c1	-15	-15	i	-8	.	1	2	2
CCN1C(=O)/C(=c2\sc3nc(=O)c(Cc4ccccc4)nn3c2=O)c2ccccc21	1	7	i	.	5	-12	1	6
COc1ccc(CN(Cc2ccc(OC)cc2)C(=O)c2cccs2)cc1	-2	-2	i	14	12	-11	-2	-6
CCOc1cc(NC(=S)NC)c(OCC)cc1NC(=O)c1ccc(OC)cc1	-3	-9	i	-14	8	9	-3	0
COc1ccc(NC2CC(=O)N(c3ccccc3)C2=O)cc1 (configuration not stated)	-15	-1	i	-4	.	-12	-3	2
COc1c(C(=O)NC(=S)Nc2nnn(C)n2)cc2ccccc2c1Br	-10	24	i	-16	-4	1	1	5
COc1ccc(C(C(=O)NC2CCCC2)N(C(=O)c2csnn2)C2CCCC2)cc1 (configuration not stated)	4	-7	i	3	29	-2	-2	0
CN1C(=O)C(C)(C)c2cc(S(=O)(=O)N3CCN(c4ccccc4)CC3)ccc21	2	8	i	-2	-28	-4	4	0
Cc1ccc(C2CC(c3cccs3)=NN2C(=O)CSc2nc3ccccc3o2)cc1 (configuration not stated)	10	-2	i	.	17	5	-4	-2
O=C(CNC(=O)c1ccccc1)NCC(=O)OCC(=O)c1ccccc1Cl	-3	.	i	-6	.	-3	0	4
COc1cc2c3nnc(-c4ccccc4)c-3cn(Cc3ccccc3F)c2cc1OC	-3	23	i	.	-32	7	.	.
CN1CCC(N(C)C(=O)/C(C#N)=C/c2ccc(OC(F)F)cc2)CC1	10	.	i	.	4	4	1	0
OCC[C@@H]1C[C@@H](O)[C@H](O)[C@@]2(OCc3ccccc32)O1	-15	-6	i	-15	0	-4	-1	2
CC1(c2ccccc2)NC(=O)N(CC(=O)Nc2ccccc2C(=O)NC2CC2)C1=O (configuration not stated)	1	1	i	-9	.	-9	-3	-1
CCOC(=O)C1CCN(S(=O)(=O)c2cc3c(cc2C)NC(=O)CO3)CC1	2	.	i	-4	-13	-7	3	0
Cc1cc(=O)oc(C)c1C(=O)NCCCN1CCN(c2ccccc2F)CC1	36	5	i	5	7	-5	1	1
O=C(CNC(=O)c1ccco1)OCC(=O)c1ccc(Cl)cc1	3	-11	i	1	-2	-7	-2	-8
CCCN1Cc2cccc(C(=O)Nc3ccc(CC)cc3)c2C1=O	-7	-13	i	-8	-135	-3	5	5
Oc1ccccc1NCC(O)Cn1ccc2ccccc21 (configuration not stated)	55	7	i	-7	-12	18	-54	9	eIF4H FP inh retest=24;PABP polyA inh retest=28
Cn1c(C(=O)NCc2cccnc2)cc2sc(Cl)cc21	0	-8	i	-10	.	8	8	-3
COc1ccccc1-c1c(C)nn2c(N3CCC4(CC3)OCCO4)cc(C)nc12	0	-5	i	-15	.	0	1	-2
COCCNC(=O)CN(C(=O)c1ccc(N2CCCC2)nc1)c1ccc(Cl)cc1	8	-9	i	-15	5	-3	0	4
CCCCN(C)C(=O)c1sc(=O)n(Cc2ccccc2C#N)c1C	.	.	.	-17	-6	.	2	-1
Cc1noc(C)c1S(=O)(=O)N(C)C[C@H]1Oc2c(cccc2N(C)C)C(=O)N([C@H](C)CO)C[C@@H]1C	.	.	.	3&13	13[16.7 µM]	.	6	6
CCCc1nnc(NC(=O)CS(=O)(=O)c2ccccc2)s1	1	.	i	-8	-15	-7	-3	-7
COc1ccccc1Cn1c(C)c(C(=O)NCc2cccc(C)c2)sc1=O	.	.	.	-13	-99	.	2	-3
Cc1ccccc1CN1C(=O)c2ccccc2S(=O)c2ccc(C(=O)NCCCN3CCOCC3)cc21 (configuration not stated)	-1	-5	i	.	0	-11	-3	-1
CCCC(C)NC(=S)NC(=O)c1cc(S(=O)(=O)N2CCOCC2)ccc1C (configuration not stated)	14	-27	i	.	26	2	-4	-11
O=C(CCCNS(=O)(=O)c1cccs1)N1CCN(c2cccc(Cl)c2)CC1	18	-1	i	16	71*	1	0	-5
N#Cc1ccc(NC(=S)NC(=O)CCc2ccc(S(=O)(=O)N3CCOCC3)cc2)cc1	-4	43	i	.	-18	4	-8	-3
Cc1ccccc1NC(=O)C(Cc1ccccc1)n1cccc1 (configuration not stated)	-5	2	i	-7	-1	-8	1	0
NC(=O)Cn1c(=O)oc2ccccc21	-3	-10	i	-16	-59	-7	-2	0
Cc1occc1C(=O)NNC(=O)c1ccc(Br)o1	-26	3	i	.	-3	-3	-2	1
CCOC(=O)CN1C(c2ccc(O)cc2)Nc2ccc(Br)cc2C1c1ccccc1 (configuration not stated)	0	-3	i	.	16	6	0	-3
CCCC(=O)N(c1ccc2oc(=O)sc2c1)S(=O)(=O)c1cccs1	-5	3	.	-5	.	-4	5	-1
COc1ccc(Nc2nccc(-c3cccc(N)c3)n2)cc1	14	28	i	-30	23	-5	-12	-6
NC(=O)c1cc(C(=O)c2cccc(Cl)c2Cl)c[nH]1	-17	-4	i	.	10	1	-1	-6
C=CCOc1ccc(/C=C/C(=O)OCC(=O)N2CCCc3ccccc32)cc1	.	-11	i	.	-5	.	0	-3
NC(=O)C1CCN(C(=O)CCc2nc3ccccc3c(=O)[nH]2)CC1	5	-1	i	-19	.	4	6	12
COC(=O)Nc1nn(Cc2ccccc2F)cc1Br	8	-7	i	.	.	-4	3	6
CC(C)C(=O)N1CC(=O)Nc2ccc(F)cc2C1c1ccc(F)cc1 (configuration not stated)	-3	-13	i	-2	-1	-4	-6	-2
O=C(CCNC(=O)c1ccco1)Nc1ccc(C(F)(F)F)cc1	4	-19	i	-14	21	1	4	5
CCCCCCC(=O)N1C/C=C\C(c2ccc(OC)cc2)N(Cc2ccc(F)cc2)C(=O)[C@H]1Cc1ccccc1 (some centres not stated)	0	35	i	.	30	-3	.	.
NC(=O)c1oc2ccccc2c1NC(=O)CN1CCCCC1	-7	-5	i	-14	-39	-1	1	4
O=C(c1ccncc1)N(Cc1ccccc1)Cc1nc2ccccc2c(=O)[nH]1	-12	-12	i	-10	-6	2	1	1
COc1cccc(-c2onc3ccc(C(C)=O)cc23)c1	14	-8	i	-14	14	3	-10	-6
Cc1cccn2c(=O)c3cc(C(=O)N4COCC4(C)C)n(C)c3nc12	-1	1	i	-8	-46	-4	4	1
COc1ccc(-c2csc3ncnc(N4CCN(S(=O)(=O)c5cccs5)CC4)c23)cc1	.	18	i	-15	15	.	-6	-7
COCCNC(=O)C1(C)CCCN(C(=O)c2ccc(F)cc2Cl)C1 (configuration not stated)	.	.	.	-9	5	.	5	7
CN(C)CCN(C(=O)c1ccc(N2C(=O)CCC2=O)cc1)c1nc2cc3c(cc2s1)OCCO3	22	-13	i	.	-4	31	.	.
COC(=O)CC1SC(=O)NC1=Nc1ccccc1 (configuration not stated)	-3	-14	i	-20	-100	-2	-3	1

Random excerpt: six records from the list.
SMILES	PABP polyA inh	CSC inhib	Rce1 inhib	UUG fidelity	HIV Env fusion	eIF4H FP inh	MT1-MMP act inh	MT1-MMP act inh RFP	others
COCCNC(=O)C1(C)CCCN(C(=O)c2ccc(F)cc2Cl)C1 (configuration not stated)	.	.	.	-9	5	.	5	7
O=C(CCNC(=O)c1ccco1)Nc1ccc(C(F)(F)F)cc1	4	-19	i	-14	21	1	4	5
Cc1cccn2c(=O)c3cc(C(=O)N4COCC4(C)C)n(C)c3nc12	-1	1	i	-8	-46	-4	4	1
NC(=O)C1CCN(C(=O)CCc2nc3ccccc3c(=O)[nH]2)CC1	5	-1	i	-19	.	4	6	12
NC(=O)c1cc(C(=O)c2cccc(Cl)c2Cl)c[nH]1	-17	-4	i	.	10	1	-1	-6
CN(C)CCN(C(=O)c1ccc(N2C(=O)CCC2=O)cc1)c1nc2cc3c(cc2s1)OCCO3	22	-13	i	.	-4	31	.	.

(cont.)
SMILES	PABP polyA inh	CSC inhib	Rce1 inhib	UUG fidelity	HIV Env fusion	eIF4H FP inh	MT1-MMP act inh	MT1-MMP act inh RFP	others
CC1(C(=O)Nc2cccc(C(F)(F)F)c2)Cc2c(-c3cccc(C(F)(F)F)c3)ccnc2O1 (configuration not stated)	.	.	.	-5	15	.	1	6
Cc1c(NC(=O)NCCN2C(=O)C3C4C=CC(C4)C3C2=O)c(=O)n(-c2ccccc2)n1C (configuration not stated)	5	-16	i	-20	11	-12	-1	-3
O=[N+]([O-])c1ccc(Nc2nc(NCCO)nc(N3CCCC3)n2)cc1	-1	-5	i	.	7	0	2	-4
CS(=O)(=O)Nc1ccc2c(c1)OCC(=O)N2Cc1ccccc1	17	-5	i	-26	2	-2	0	-2
O=C(OCN1C(=O)c2ccccc2C1=O)c1ccco1	-9	.	i	7	.	-8	1	-2
O=C(CSc1nc2ccccc2c(=O)n1CC1CCCO1)NCCc1ccccc1 (configuration not stated)	10	-7	i	-9	41	0	-2	3
O=C(CNC(=O)c1ccc(Cl)cc1Cl)OCC(=O)N1CCCC1	.	-12	.	-8	.	.	-2	1
O=C(CCC(=O)N1CCN(S(=O)(=O)c2ccc3ccccc3c2)CC1)NCC(F)(F)F	11	-2	i	-17	-7	-5	-2	-1
O=C(CCNC(=O)c1ccc(Br)o1)NCc1ccccn1	-6	-6	i	-28	7	13	0	4
Cc1ccc2nc(SCC(=O)O)nc(C)c2c1	2	7	i	32	-3	-13	9	-3
O=C(C[C@H]1C/C=C\C[C@H](Cc2ccc(F)cc2)C(=O)OCCNC1=O)NCCO	.	-6	.	-3	3	.	5	4
CSc1oc(-c2ccco2)nc1S(=O)(=O)c1ccccc1	12	2	i	-8	-12	15	-2	0
CC1(C)CC(=O)N(CC(=O)O)c2ccccc2S1(=O)=O	10	-1	i	-18	2	-11	0	2
COc1ccc2oc3cc(C)[n+]([O-])c(-c4ccc(Br)cc4)c3c2c1	10	-8	i	-11	16	14	-2	-22
Cc1cc2cc(C)c(NCCNC(=O)c3cccc(F)c3)nc2cc1C	3	25	i	.	7	-8	-1	0
Cc1cc(C)c(NC(=O)CNC(=O)CSc2nnc(N)s2)c(C)c1	.	-17	i	-11	6	.	-9	1
COc1ccc(/C(C)=N/Nc2nncc3ccccc23)cc1	-8	-11	i	-20	-101	-9	-5	2
COc1ccc(N/C=C\C(=O)c2ccc3c(c2)OCO3)cc1	6	0	i	-30	-262	-7	-3	-6
O=S(=O)(Cc1ccccc1)N1CCN(c2ncccn2)CC1	-5	.	i	-1	-7	-1	2	-1

These rows are one share of the data; rates above refer to the full screens.
